From PubChem BioAssay
Sa helicase inh: S. aureus DNA helicase inhibition; purified S. aureus helicase, fluorescence unwinding assay; about half of the hits fall short of the stated cut; inhibition, %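 (tested at about 80 µM)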; 0.05% of 120,000 active; AID 485395;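 active means both duplicates at 50% or more, or one of them with a favoured structure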;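 further: 0% = mean of negative control wells and 100% = mean of positive control wells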
MgrA DNA FP: alters Staphylococcus aureus MgrA binding to DNA; fluorescence polarization; inhibition, %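 (about 10 µg/mL by stock and volumes)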; 0.13% of 84,000 active; AID 602314;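 active means above 50% in either of two replicates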;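 further: 0% = protein plus DNA without compound and 100% = DNA alone without protein; higher means less MgrA bound to DNA so lower polarization; one replicate is shown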
The depositor's hits bear a star.

Sample of the layout, 13 compounds:
`N#Cc1cnn(-c2ccccc2)c1/N=C/N1CCCC1` gave Sa helicase inh 1 and MgrA DNA FP -0.9.
CC(=O)c1ccc2c(c1)Cc1ccccc1-2 was read as MgrA DNA FP 3.8.
CC(NC(=O)Cn1ncc2ccccc21)c1ccccc1 (stereo unspecified) was read as Sa helicase inh 1 and MgrA DNA FP 0.1.
For O=C(CS(=O)CC(=O)Nc1ccc2c(c1)OCCO2)Nc1ccc(Cl)cc1 (stereo unspecified) the results were Sa helicase inh 6 and MgrA DNA FP 5.6.
Screening COc1ccc(OCC(O)CNC(=O)c2sccc2Cl)cc1 (stereo unspecified) returned MgrA DNA FP -2.5.
CCOc1ccccc1C1C(C(=O)N2CCOCC2)=C(C)Nc2nc3ccccc3n21 (stereo unspecified) was read as Sa helicase inh 15 and MgrA DNA FP -0.3.
Screening O=C(O)c1ccc(Br)s1 returned MgrA DNA FP -0.6.
CCCCn1c(=S)[nH]c2sc3c(c2c1=O)CCCC3 was read as Sa helicase inh 7 and MgrA DNA FP 2.2.
Screening O=C1/C(=C/c2cccc3ccccc23)CC/C1=C\c1cccc2ccccc12 returned MgrA DNA FP 0.7.
`Cc1ccc(NC(=O)CC(=O)Nc2ccc(C)cc2)cc1` gave Sa helicase inh 5 and MgrA DNA FP -1.1.
For O=C1CCC(C(=O)Nc2ccccc2N2CCOCC2)=NN1 the results were MgrA DNA FP 0.0.
Screening O=C1Nc2c(ccc(Cl)c2Cl)C(=O)C1(F)c1ccccc1 (stereo unspecified) returned MgrA DNA FP -1.6.
For Cc1[nH]c2ccc(CNC(=O)Nc3ccc(F)cc3F)cc2c1C the results were Sa helicase inh -5 and MgrA DNA FP -0.2.

The whole of this part, from the first entry:
`N#Cc1cnn(-c2ccccc2)c1/N=C/N1CCCC1` gave Sa helicase inh 1 and MgrA DNA FP -0.9.
CC(=O)c1ccc2c(c1)Cc1ccccc1-2 was read as MgrA DNA FP 3.8.
CC(NC(=O)Cn1ncc2ccccc21)c1ccccc1 (stereo unspecified) was read as Sa helicase inh 1 and MgrA DNA FP 0.1.
For O=C(CS(=O)CC(=O)Nc1ccc2c(c1)OCCO2)Nc1ccc(Cl)cc1 (stereo unspecified) the results were Sa helicase inh 6 and MgrA DNA FP 5.6.
Screening COc1ccc(OCC(O)CNC(=O)c2sccc2Cl)cc1 (stereo unspecified) returned MgrA DNA FP -2.5.
CCOc1ccccc1C1C(C(=O)N2CCOCC2)=C(C)Nc2nc3ccccc3n21 (stereo unspecified) was read as Sa helicase inh 15 and MgrA DNA FP -0.3.
Screening O=C(O)c1ccc(Br)s1 returned MgrA DNA FP -0.6.
CCCCn1c(=S)[nH]c2sc3c(c2c1=O)CCCC3 was read as Sa helicase inh 7 and MgrA DNA FP 2.2.
Screening O=C1/C(=C/c2cccc3ccccc23)CC/C1=C\c1cccc2ccccc12 returned MgrA DNA FP 0.7.
`Cc1ccc(NC(=O)CC(=O)Nc2ccc(C)cc2)cc1` gave Sa helicase inh 5 and MgrA DNA FP -1.1.
For O=C1CCC(C(=O)Nc2ccccc2N2CCOCC2)=NN1 the results were MgrA DNA FP 0.0.
Screening O=C1Nc2c(ccc(Cl)c2Cl)C(=O)C1(F)c1ccccc1 (stereo unspecified) returned MgrA DNA FP -1.6.
For Cc1[nH]c2ccc(CNC(=O)Nc3ccc(F)cc3F)cc2c1C the results were Sa helicase inh -5 and MgrA DNA FP -0.2.
For COc1ccc(/C=C2\SC(=O)N(c3ccc(C)cc3)C2=O)cc1 the results were Sa helicase inh 5 and MgrA DNA FP 4.2.
For Cc1cc(C(=O)NNc2c(Cl)cccc2Cl)no1 the results were Sa helicase inh 21.
For COc1ccccc1CNCc1ccccc1OC the results were Sa helicase inh 7.
O=C(CSc1nnc(-c2cccs2)o1)c1ccc[nH]1 was read as Sa helicase inh -13.
Screening Cc1ccc(C(=N)N)cc1F returned MgrA DNA FP 0.4.
Screening CS(=O)(=O)N(CC(=O)NCC1CCCO1)Cc1ccc(Cl)c(Cl)c1 (stereo unspecified) returned Sa helicase inh 14 and MgrA DNA FP 4.8.
CN(C)c1nc2ccc(OCCN3CCOCC3)cc2s1 was read as Sa helicase inh 6 and MgrA DNA FP -3.5.
Screening Cc1oc2cc3oc(=O)ccc3cc2c1C returned Sa helicase inh -15.
`c1ccc(CNc2ccccn2)cc1` gave Sa helicase inh 1 and MgrA DNA FP -2.6.
Screening O=S(=O)(NCCOc1ccccc1)c1ccc2ccccc2c1 returned Sa helicase inh 2 and MgrA DNA FP 3.2.
`CC(C)(C)NC(=O)N1CCN(c2ncccc2C(F)(F)F)CC1` gave MgrA DNA FP -1.7.
Screening O=C(NCc1ccccc1Cl)C1(c2ccccc2)CCCC1 returned Sa helicase inh -1 and MgrA DNA FP -1.1.
For CCc1nnc(NC(=O)C2CC2)s1 the results were Sa helicase inh -14 and MgrA DNA FP 0.7.
`C=CCNC(=O)C1C(=O)NC2(C)CC1c1ccccc1O2` (stereo unspecified) gave Sa helicase inh -17.
Screening CC(C)N1CC(C(=O)O)CC1=O (stereo unspecified) returned Sa helicase inh 12.
`CCn1nnnc1SCC(N)=O` gave Sa helicase inh 4 and MgrA DNA FP 4.3.
For CC1(C)N=c2ccc([N+](=O)[O-])cc2=N1 the results were MgrA DNA FP 38.
For Cc1cc(C)n(CC(=O)NCc2ccccc2)c(=O)c1C#N the results were Sa helicase inh 7 and MgrA DNA FP -1.1.
Screening COc1ccc(NC(=O)c2ccc(-c3ccccc3F)cc2)cc1 returned MgrA DNA FP -0.8.
For Cc1ccc(C)n1-c1ncn[nH]1 the results were Sa helicase inh 3.
For CCCCOc1ccc(S(N)(=O)=O)cc1 the results were Sa helicase inh -5.
COc1ccccc1CC(=O)Nc1cccc(C)n1 was read as Sa helicase inh -3 and MgrA DNA FP 2.2.
Cc1cc(-c2ccccc2)n(-c2cc(Cl)ncn2)n1 was read as Sa helicase inh -2.
O=C1NCCCN1Cc1ccc(Cl)cc1 was read as Sa helicase inh 15.
Screening Cc1ccc2c(c1)c1c3c(nccn32)CCC1 returned Sa helicase inh 3.
CCOC(=O)c1c(-c2ccccc2)oc2ccc(O)c(CSCC(=O)Nc3ccccc3)c12 was read as Sa helicase inh 5 and MgrA DNA FP 3.7.
Screening CCOC(=O)CSc1nnc2c3ccccc3c3ccccc3c2n1 returned MgrA DNA FP -3.5.
Cc1ccc(CN(Cc2ccco2)C(=S)Nc2c(C)cc(C)cc2C)cc1 was read as Sa helicase inh 5 and MgrA DNA FP 1.3.
For C(=N\n1c(-c2ccco2)csc1=NC1CCCCC1)/c1ccccn1 the results were Sa helicase inh -13.
Screening COc1ccccc1NC(=S)N1CCN(C2CCCCC2)CC1 returned Sa helicase inh 10 and MgrA DNA FP -2.9.
Screening N#C/C(=C(\Oc1ccccc1)C(F)(F)F)c1ccccc1 returned MgrA DNA FP 0.8.
Cn1cccc1/C=C1\CS/C(=C\c2cccn2C)C1=O was read as Sa helicase inh -61.
`CCOC(=O)c1c(C)[nH]c(C)c1C(=O)CSc1nnc(C(F)(F)F)n1N` gave Sa helicase inh 9.
O=C(CCCN1C(=O)/C(=C/C=C/c2ccccc2)SC1=S)Nc1ccccn1 was read as Sa helicase inh -18.
`CC1=CC(C)(C)Nc2ccc(OC(=O)CN3C(=O)CCC3=O)cc21` gave Sa helicase inh 11.
For O=C(NCC1CCCO1)c1ccc(Br)o1 (stereo unspecified) the results were Sa helicase inh 23.
Cc1sc2nc(SCC(=O)NCCO)n(-c3ccccc3)c(=O)c2c1C was read as MgrA DNA FP -2.3.
CC(C)C1=NN2C(=N)CC(=O)N=C2S1 was read as Sa helicase inh 4 and MgrA DNA FP 2.0.
Screening COCc1nnc(NC(C)=O)s1 returned Sa helicase inh 2 and MgrA DNA FP 1.4.
For CCN(CC)c1ccc(/C=C2/Sc3c(ccc4ccccc34)C2=O)cc1 the results were MgrA DNA FP 0.1.
Screening COc1ccccc1N1CCN(S(=O)(=O)c2ccc3c(c2)C(=O)c2ccccc2C3=O)CC1 returned MgrA DNA FP -0.2.
For CCOC(=O)C1=C(C)N=c2s/c(=C\c3ccc(OC(C)=O)cc3)c(=O)n2C1c1ccc(OC(C)=O)cc1 (stereo unspecified) the results were MgrA DNA FP -1.1.
Screening Cc1c(F)cccc1NC(=O)CCCCCC1NC(=O)NC1C (stereo unspecified) returned Sa helicase inh 6 and MgrA DNA FP -1.2.
CCCc1c(C(=O)Nc2ccc(OC)cc2)cnn1-c1ccccc1 was read as MgrA DNA FP -2.2.
For CCC(C(=O)NC1CCCC1)N(C(=O)Cn1nnc(-c2ccc(C)cc2)n1)c1ccc2c(c1)OCCO2 (stereo unspecified) the results were Sa helicase inh -13 and MgrA DNA FP 2.8.
`Cc1cc(-c2nnc(-c3ccc(C(F)(F)F)cn3)o2)no1` gave Sa helicase inh -22.
`O=S(=O)(NCCCCN1CCN(c2ncccc2C(F)(F)F)CC1)c1ccc(Cl)cc1` gave Sa helicase inh -22.
For CC1(C)Cc2c(C#N)c(SCC(=O)c3ccccc3)nc(N3CCOCC3)c2CO1 the results were MgrA DNA FP 2.1.
NC(N)=NN=C1CCC(c2ccccc2)CC1 (stereo unspecified) was read as Sa helicase inh 21.
Screening O=C(O)CCC(=O)N1N=C(c2c(-c3ccccc3)c3cc(Br)ccc3[nH]c2=O)CC1c1ccccc1F (stereo unspecified) returned MgrA DNA FP 0.8.
CN(C)c1ccc(/C=C2\C(=O)N(c3ccccc3)N=C2C(=O)Nc2ccccc2)cc1 was read as Sa helicase inh 13 and MgrA DNA FP 0.4.
For Cc1ccsc1C(=O)OCC(=O)c1ccc2c(c1)OCCO2 the results were Sa helicase inh 6.
O=C(Oc1ccc(C2Oc3ccccc3C3CC(c4ccc(Cl)cc4)=NN32)cc1)c1ccc(Br)cc1 (stereo unspecified) was read as MgrA DNA FP -2.4.
CCOC(=O)c1c(-c2ccccc2)oc2c1cc(OC(=O)c1ccc(Cl)cc1Cl)c1ccccc12 was read as MgrA DNA FP -0.1.
Screening N#Cc1c(NC(=O)/C=C/c2cccs2)sc2c1CCC2 returned Sa helicase inh -14.
For CCOC(=O)c1cnc2c(C(F)(F)F)cccc2c1N1CCOCC1 the results were Sa helicase inh 11 and MgrA DNA FP -1.9.
NCCOc1ccccc1Cc1ccccc1 was read as Sa helicase inh -16 and MgrA DNA FP 0.8.
`CC(C)(C)C(N)Cn1cccn1` (stereo unspecified) gave Sa helicase inh 11.
`Cc1ccc(NC(=O)c2ccccc2S(C)(=O)=O)cc1` gave Sa helicase inh 9.
CC(=O)NCc1ccc(C(=O)CSc2nnc(-c3cccc(F)c3)n2N)o1 was read as Sa helicase inh -1.
O=C(O)C1CCN(S(=O)(=O)/C=C/c2ccccc2)CC1 was read as Sa helicase inh -22.
COc1cc(C2OCC3C(C)C=C(C)C2C3C)ccc1O (stereo unspecified) was read as Sa helicase inh 10 and MgrA DNA FP 2.9.
`O=c1[nH]c(-c2ccccc2)cs1` gave Sa helicase inh -15.
`O=C(O)CSc1nnc(COc2ccc(Cl)cc2)n1-c1ccc(Br)cc1` gave Sa helicase inh -3 and MgrA DNA FP -0.6.
For O=C(NCC(=O)N1CCc2ccccc21)c1cccc(Cl)c1 the results were Sa helicase inh -15 and MgrA DNA FP 1.7.
For COC(=O)c1ccc(CSc2nc3scc(-c4cccs4)c3c(=O)[nH]2)o1 the results were Sa helicase inh -12.
CCOC(=O)c1c(Nc2ccccc2OC)sc(C(=O)c2ccc(Br)cc2)c1N was read as MgrA DNA FP 1.0.
`CCN(C(=O)Cc1noc2ccccc12)c1ccccc1` gave Sa helicase inh 3.
`CCCc1nc(SCC(=O)c2ccc(Cl)cc2)nc(OC(=O)N(CC)CC)c1C` gave MgrA DNA FP 0.3.
Cc1ccccc1OCC(=O)Nc1cc(Sc2ccccn2)cc(S(=O)(=O)c2ccccc2)c1 was read as Sa helicase inh -2 and MgrA DNA FP -1.1.
`CCSc1nc2c(c(=O)[nH]c(=O)n2C)n1CC` gave Sa helicase inh -2 and MgrA DNA FP 8.6.
COc1ccc(O)c(/C=N/N=C/c2cc(OC)ccc2O)c1 was read as Sa helicase inh 1.
`Cc1nnc2ccc(-c3ccc(NC(=O)c4ccc5c(c4)OCO5)cc3)nn12` gave Sa helicase inh 7.
For COc1ccccc1N1CCN(S(=O)(=O)c2cccc3nsnc23)CC1 the results were Sa helicase inh 21 and MgrA DNA FP -31.
`Cc1ccc(S(=O)(=O)Nc2cccc(C(=O)NCCC(C)C)c2)cc1` gave Sa helicase inh -22.
For Cc1ccc(-c2nc(C#N)c(NCCCN3CCOCC3)o2)cc1 the results were Sa helicase inh 6.
Screening Nc1cc(=O)nc(SCCC(=O)O)n1-c1ccccc1 returned Sa helicase inh 3 and MgrA DNA FP -7.2.
For CCCN1C(=O)c2ccccc2NC1c1ccc(OC)c(OC)c1 (stereo unspecified) the results were Sa helicase inh 11 and MgrA DNA FP 1.1.
Screening O=C(c1ccc(F)cc1)c1ccc(N2CCCC2)cc1 returned Sa helicase inh -2.
For Nc1ccc(C(=O)O)cc1 the results were MgrA DNA FP 1.8.
For Cc1cn(C(=O)Nc2ccccc2)nc1-c1cccs1 the results were MgrA DNA FP -3.7.
COc1ccc(CN2C(=O)C3C4C=CC(C4)C3C2=O)cc1 (stereo unspecified) was read as Sa helicase inh -6 and MgrA DNA FP 0.3.
N#Cc1cc2c(nc1SCC(=O)O)CCC2 was read as Sa helicase inh 9 and MgrA DNA FP -5.4.
O=C1CC(c2ccccc2)CC(O)=C1C=NCc1ccncc1 (stereo unspecified) was read as Sa helicase inh 3 and MgrA DNA FP -0.6.
`CC1CN(C(=O)COC(=O)c2c(F)cccc2F)CC(C)O1` (stereo unspecified) gave Sa helicase inh -10.
Screening S=c1[nH]cc2ccccn12 returned Sa helicase inh 2.
`O=C(O)CCC(=O)N1CCN(C(c2ccccc2)c2ccccc2)CC1` gave Sa helicase inh 2 and MgrA DNA FP 0.8.
For COc1ccc(-c2c(-c3ccc(OC)cc3)n(Cc3ccc(F)cc3)c3nc[nH]c(=O)c23)cc1 the results were Sa helicase inh 8 and MgrA DNA FP 0.7.
Cc1cc(=O)oc2c3c(ccc12)OC(=O)/C3=C\c1ccccc1 was read as Sa helicase inh 5 and MgrA DNA FP 0.0.
Screening O=C(CCSc1nnnn1-c1ccccc1)c1ccc(F)cc1 returned Sa helicase inh 4.

This is a subset (hit frequency here may not be typical).
